From PubChem BioAssay
HIV TAR-Tat: HIV-1 TAR-Tat binding disruption; z-score (test concentration not listed); hit rate 0.6% among 100,000; HIV-1 TAR RNA, Tat peptide displacement FRET; active compounds read high; AID 1259389;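 further: score is relative to mean and SD of negative controls; some compounds called inactive have numbers as strong as hits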
CDC25B CDK2 inh: human CDC25B-CDK2/CyclinA binding inhibition; AID 1259370; P30305+P24941; z-score (concentration not given with the values); HTRF CDC25B-CDK2/CyclinA binding, anti-His/anti-Flag; active compounds read high; hit rate 0.72% among 94,000;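 further: score is relative to mean and SD of negative controls; strong numbers were not always called active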
* marks the source's active call; other numbers are inactive results; . = no result given.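 How the source made its calls: active means z-score from 3 up in half or more of its runs; inactive means the rest.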

Every second line gives: HIV TAR-Tat | CDC25B CDK2 inh
CCCc1cc(=O)n2nc(N3CCC(C(=O)NCCN4CCCCC4)CC3)sc2n1
  0.33 | -0.58
O=C1CC(c2cccs2)c2cc3c(cc2N1)OCCO3 (stereo unspecified)
  -0.2 | -0.64
O=C1CCCC2=C1C(c1cccs1)N(S(=O)(=O)c1ccc(F)cc1)c1ccccc1N2 (stereo unspecified)
  -0.25 | .
C=CCNc1sc(S(=O)(=O)CCC)nc1S(=O)(=O)c1ccc(Cl)cc1
  0.05 | -1.5
Cn1c(=O)oc2cc(S(=O)(=O)NCCCN3CCN(c4cccc(Cl)c4)CC3)ccc21
  . | -1.1
Cc1csc2nc(COc3ccc(C(C)C)cc3)cc(=O)n12
  -1.5 | -1.1
Cn1c(C(=O)N2CCOCC2)ccc1S(=O)(=O)N(Cc1ccccn1)Cc1ccccn1
  . | -1.8
O=C(CCCn1c(=O)c2cccn2c2ccccc21)N1CCc2ccccc21
  2.4 | .
O=C1COc2cc(S(=O)(=O)NCCN3CCN(c4ccccc4)CC3)c(Cl)cc2N1
  -1.9 | .
CNC(=O)C1Cc2cc(S(=O)(=O)N3CCOCC3)ccc2N1C(C)=O (stereo unspecified)
  1 | .
O=c1c2n[nH]c(=O)n2ccn1-c1ccc(F)cc1
  3.6 | -1.6
CCCCSc1nnc(NC(=O)c2nc(SCC)ncc2Cl)s1
  2 | -0.9
CCOC(=O)CCSC1=NC(c2cccs2)C(C(=O)OCC)=C(C)N1 (stereo unspecified)
  . | -1.9
O=C(Nc1ccccc1Cl)N1CCN(Cc2nc3cccnc3n2-c2ccccc2)CC1
  0.61 | .
CN(C)CCS(C)(=O)=O
  . | -1.9

Remaining list, next part
Every second line gives: HIV TAR-Tat | CDC25B CDK2 inh
O=C(O)CCc1nc2sc3c(c2c(=O)[nH]1)CCCC3
  0.21 | .
Cc1noc(C)c1-c1nc(CN2CCOCC2)no1
  . | -1.6
Cc1nnc(-c2cccc(S(=O)(=O)N3CCCC3c3ccc(F)cc3)c2)o1 (stereo unspecified)
  . | -1.3
Cn1c(=O)c2c(nc(Oc3ccc(F)cc3)n2C)n(C)c1=O
  0.66 | -0.9
COc1ccc(C)cc1Nc1nc2ccc(C)cc2n2cnnc12
  1 | 1.7
O=C(CCC1N=C2c3ccccc3N=C(SCC(=O)c3ccccc3)N2C1=O)NC1CCCCC1 (stereo unspecified)
  0.65 | .
CCOCc1cc(CN2CCC(C)CC2)c(O)c2ncccc12
  0.32 | -4
CCCc1c(C)nc2ncnn2c1N1CCN(c2ccc(F)cc2)CC1
  1.5 | 0.62
CC(=O)Nc1cc2c(s1)CCCC2
  -0.85 | -1.2
CC(C)CCNC(=O)Cn1c(=O)c2cccn2c2ccc(F)cc21
  0.1 | .
COC(=O)c1ccc(NC(=O)Nc2nc3ccc(S(C)(=O)=O)cc3s2)cc1
  0.87 | -1.9
Cc1cc2oc(C(=O)Nc3ccc4nsnc4c3)cc(=O)c2cc1C
  1.3 | 1.2
COc1ccc(OCc2nnc(SCc3cc(=O)c4ccccc4[nH]3)n2C)cc1
  0.42 | .
CCn1c(CCc2ccc(NS(=O)(=O)c3cccc4nsnc34)cc2)nc2ccccc21
  2.6 | .
CSc1nnc(-c2ccc(C)cc2)o1
  -0.95 | 0.12

More structures
Every second line gives: HIV TAR-Tat | CDC25B CDK2 inh
O=C(Nc1nnc2n1CCCS2)C1c2ccccc2Oc2ccccc21
  0.38 | .
CCOC(=O)c1c(C)n(C)c2c1cc(O)c1occ(C)c12
  1.1 | -0.55
COc1ccc(S(=O)(=O)N2CCC(CN3C(=O)c4cccc5cccc(c45)C3=O)CC2)cc1
  . | -13
CN1C(=O)C2(/C(=C(/O)c3ccc(F)cc3)C(=O)C(=O)N2CCN2CCOCC2)c2ccccc21 (stereo unspecified)
  -1.1 | -2.7
CSc1sc(C(=O)O)cc1S(=O)(=O)C(C)C
  . | -2.7
CC(C)(C)Nc1ncnc2c1sc1nc3c(cc12)COC(C)(C)C3
  . | 1.1
c1cc[n+](C[n+]2ccccc2)cc1
  . | -1.5
CCOc1ccc(-c2nc(SCC(=O)Oc3ccc(C)cc3)n3[nH]c(=O)cc3n2)cc1
  1.1 | .
Cc1ccc(Nc2c(C)c(C)nc3nncn23)cc1
  -0.84 | -1.5
CNC(=O)C1CCN(C(=O)N2CC(C)Oc3ccccc32)CC1 (stereo unspecified)
  0.95 | .
Cc1nc(-c2csc(S(=O)(=O)NC3CCCC3)c2)no1
  1.6 | .
Cc1nc2c(-c3ccc(F)cc3)c(C)nn2c(C)c1CCC(=O)NC(C)C
  . | -1
CCc1nc(-c2csc(S(=O)(=O)NCc3ccco3)c2)no1
  0.18 | .
CC1CCCCC1NC(=O)C1(C)Cn2c(cc3occc32)C(=O)N1CCN1CCOCC1 (stereo unspecified)
  6.6 | .
O=C(c1noc2c1CCCCC2)N1CCN(c2ccccn2)CC1
  0.97 | .

Further entries follow.
Every second line gives: HIV TAR-Tat | CDC25B CDK2 inh
CCOC(=O)c1nc(NCCc2ccsc2)c2ccccc2n1
  0.77 | .
COc1cc(OC)c(NC(=O)N2CCCn3nc(C)cc32)cc1Cl
  2.2 | .
Cc1cc(N(C)Cc2ccccc2)nc2cc(O)ccc12
  0.93 | -0.48
COc1cc(C2C(C(=O)OC3CCCCC3)=C(C)NC3=C2C(=O)CCC3)cc(Cl)c1O (stereo unspecified)
  -0.44 | 0.22
COc1cccc(C=Nc2ccccc2N2C(=O)c3ccccc3C2=O)c1O
  . | -2.3
COCCOC(=O)c1c(C)oc2ccc(NS(=O)(=O)c3cc(C)ccc3C)cc12
  . | -3.5
NC(=O)c1sc2nc3c(c(-c4ccco4)c2c1N)CCCC3
  -4.7 | .
CCCCCC(=O)Nc1noc2ccccc12
  1.2 | -1.2
Fc1ccc(Cn2nnc3ccccc32)cc1
  -1.2 | 0.46
CC(NC(=O)C(C)n1ncn2c(cc3occc32)c1=O)c1ccccc1 (stereo unspecified)
  0.41 | 2
Cc1csc(NC(=O)Cn2cnc(S(=O)(=O)N3CCCCC3)c2)n1
  -1.3 | .
COc1ccc(Cl)cc1Nc1nc2ccccc2c2nncn12
  2.3 | .
CCCC12CN3CC(CCC)(CN(C1)C3c1ccc(CC)cc1)C2=O (stereo unspecified)
  -0.31 | -2.2
COc1cccc(-c2nc3ncccn3c2NC2CCC(C)CC2)c1 (stereo unspecified)
  -0.99 | .
Oc1cc(O)cc(/C=C/c2ccccc2)c1
  -1.3 | .

Following part.
Every second line gives: HIV TAR-Tat | CDC25B CDK2 inh
Cc1ccc(C(O)(C(C)C)C(CN2CCOCC2)c2ccccc2)cc1 (stereo unspecified)
  -1.5 | -1.6
COc1cc(CNCCSc2nnnn2C)ccc1OCc1ccc(Cl)cc1
  1 | -0.27
COc1ccc(OC(C)c2nc(-c3ccc(Cl)cc3)no2)cc1 (stereo unspecified)
  0.86 | -2.1
Brc1ccc(CSc2ccc(-c3ccccn3)nn2)cc1
  1.4 | .
Cc1cn(CCC(=O)Nc2ccc(N3CCOCC3)cc2)c2ccccc12
  . | -2.1
O=S(=O)(c1cc(F)ccc1F)N1CCN(c2cc(-c3ccccc3)ncn2)CC1
  0.99 | .
Cn1c(=O)c2ccccc2n2c(CCC(=O)NCc3ccccn3)nnc12
  0.45 | 0.69
CCc1nc(-c2csc(S(=O)(=O)N3CCc4ccccc43)c2)no1
  0.74 | .
CC1CN(C(=O)Nc2ccc(F)c(Cl)c2)c2ccccc2S1 (stereo unspecified)
  2.5 | .
Cc1cc(NC(=O)Cn2c(=O)oc3cc(S(=O)(=O)N4CC(C)CC(C)C4)ccc32)no1 (stereo unspecified)
  . | -2.1
Cc1cccc(/C=C/c2nn3c(-c4ccco4)nnc3s2)c1
  -0.25 | -0.96
COc1ccc(S(=O)(=O)N2CC3C4C=CC(C4)C3C2)cc1 (stereo unspecified)
  . | -1.2
O=C(COc1ccc(Cl)cc1)N1CCc2cc3ccccc3nc21
  1.3 | -3
O=c1cc(CSc2nc3ccccc3[nH]2)nc2sc(-c3cccs3)nn12
  0.82 | 0.61
CCCc1cc(=O)n2nc(N(C)CC(=O)NCCc3cccs3)sc2n1
  2.5 | -0.82

Looked up above:
O=C(COc1ccc(Cl)cc1)N1CCc2cc3ccccc3nc21 in CDC25B CDK2 inh = -3
CCCc1cc(=O)n2nc(N(C)CC(=O)NCCc3cccs3)sc2n1 in CDC25B CDK2 inh = -0.82

(listing goes on)
SMILES | HIV TAR-Tat | CDC25B CDK2 inh
Cc1oc2ccc(NS(=O)(=O)c3cc([N+](=O)[O-])ccc3Cl)cc2c1C(=O)OC(C)C | . | -2.4
CC(C)n1c(NCCO)nc2ccccc21 | 0.27 | -1
Cc1c(C(=O)N2CCCCC2)c(S(=O)(=O)N(C)CC2COc3ccccc3O2)c(C)n1C (stereo unspecified) | -1.6 | .
CC(CCc1ccccc1)NCc1noc2ccccc12 (stereo unspecified) | 2.3 | .
COc1ccc(-c2nc3ccccc3o2)cc1NC(=S)NC(=O)c1cccc(Cl)c1 | . | -2.6
CN(C)n1cccc1/C=C(\C#N)S(C)(=O)=O | . | -0.92
COc1ccc(-c2noc(CNS(=O)(=O)c3ccc(F)cc3)n2)cc1OC | 0.59 | -1.1
CSc1cccc(NC(=O)CSc2nncn3c2cc2oc(C)cc23)c1 | -0.18 | .
Clc1ccc2nc(-c3cccs3)c(NC3CCCC3)n2c1 | -5.2 | -0.17
CCOC(=O)CC1NCCNC1=O (stereo unspecified) | . | -1.9
COc1ccc(-c2nc(CNS(=O)(=O)c3cc(OC)ccc3OC)cs2)cc1 | 1.5 | -2.3
Cc1ccccc1Cn1c(SCc2nn[nH]n2)nc2c1c(=O)n(C)c(=O)n2C | -1.6 | -1.1
COc1ccc(Nc2ncnc3onc(-c4ccc(Cl)cc4)c23)cc1 | 1.6 | -1.1
COc1ccc2nc(N(CCN(C)C)C(=O)c3cccs3)sc2c1 | -0.08 | .
CC(C)c1nnc(NC(=O)c2cc(-c3ccc4c(c3)OCCO4)on2)s1 | 1.1 | -0.89
CCN(CC)C(=O)C(=O)c1c(C)n(C)c2ccccc12 | . | -0.62
O=C(O)CSc1cccc2cccc(C(=O)O)c12 | 1.1 | 0.74
Cc1ccc(N2CCn3c(nc4ccccc43)C2)cc1NS(C)(=O)=O | -9 | -0.9
O=S(=O)(Nc1ccccc1)c1ccc(-c2cnc(C3CC3)o2)cc1 | 0.47 | .
Cc1occc1-c1nnc(SCC(=O)N(C)C2CCCCC2)o1 | 1.6 | -0.66
CCC1CCCCN1S(=O)(=O)c1ccc(S(=O)(=O)N2CCN(c3ncccn3)CC2)cc1 (stereo unspecified) | 1.9 | 0.12
COc1ccc(Oc2ccc([N+](=O)[O-])cc2C2=N/C(=C/N(C)C)C(=O)O2)cc1 | . | -1.9
Cc1ncc(-c2ccc(C)c(S(=O)(=O)NCc3ccccc3Cl)c2)o1 | -0.06 | .
Cc1ccc2oc(SCc3noc(CCC(=O)Nc4ccc(Br)c(C)c4)n3)nc2c1 | 1.2 | .
CC1CCCC(NC(=O)c2nn(C)c3c2CS(=O)(=O)c2ccccc2-3)C1C (stereo unspecified) | -0.1 | -1.6
O=C(Nc1ccc(F)c(Cl)c1)c1c(O)c2ccccc2[nH]c1=O | 1 | .
Fc1ccc(-n2ncc3c(Nc4ccc(Cl)cc4)ncnc32)cc1 | 0.31 | .
CC(C)(C)NC(=S)NC1CC1 | . | -1.2
O=C(Nc1ccc2c(c1)OCO2)C1CC(c2c(F)cccc2Cl)=NO1 (stereo unspecified) | 0.27 | -1.6
COCCCn1c(=O)c2sccc2n2c(CCCC(=O)O)nnc12 | 0.44 | -0.58

(more compounds)
SMILES | HIV TAR-Tat | CDC25B CDK2 inh
COc1ccc(C2CC(=O)C3=C(C2)Nc2ccccc2NC3c2cccc(F)c2)cc1 (stereo unspecified) | 2.4 | -2.2
COc1ccc2[nH]c(C(=O)NCCCn3ccnc3)cc2c1 | . | -3.5
CN(Cc1nc2ccccc2n1C)S(=O)(=O)c1ccc(Cl)cc1 | 1.9 | 1.2
O=C(CN1N=NC2C(=O)N(c3ccc(F)c(F)c3)C(=O)C21)Nc1ccc2c(c1)OCCO2 (stereo unspecified) | -1.4 | .
CCN1CCN(c2ncnc3sc(C(=O)N4CCC(N5CCCCC5)CC4)c(C)c23)CC1 | 1.7 | .
Cc1ccc(C)c2[nH]c(=O)c(CCNC(=O)C3CCCC3)cc12 | . | -1.3
CN(/N=C/c1ccc(Cl)cc1)c1cnn(C)c(=O)c1Cl | . | -0.96
Cc1nn2cnnc2c(C)c1CCC(=O)NC1CCCCC1 | -0.49 | .
Cc1cc(C)nc(SCCn2c(N3CCOCC3)nc3c2c(=O)n(C)c(=O)n3C)n1 | -0.49 | -1.1
COc1cccc2c(=O)c(NC(=O)N3CCN(C(=O)c4ccco4)CC3)c[nH]c12 | -0.2 | -0.75
Cc1cc(-c2ccc(S(=O)(=O)Nc3ccc(Cl)cc3)s2)n[nH]1 | 0.77 | .
Cn1c(C(=O)Nc2cccc(Br)c2)cc2c(=O)n3ccccc3nc21 | -0.5 | .
O=C1NCCCC1C(=O)NCCc1c[nH]c2ccc(O)cc12 (stereo unspecified) | . | -1.4
CN1CCN(c2ncnc3sc4c(c23)CCCC4)CC1 | 1.8 | -1.3
COc1cccc(-n2c3c(c(SC(N)c4cccc5ccccc45)nc2=O)CCC3)c1 (stereo unspecified) | 0.34 | -1.4

Five compounds drawn at random from those above:
SMILES | HIV TAR-Tat | CDC25B CDK2 inh
O=C1NCCCC1C(=O)NCCc1c[nH]c2ccc(O)cc12 (stereo unspecified) | . | -1.4
COc1ccc(C2CC(=O)C3=C(C2)Nc2ccccc2NC3c2cccc(F)c2)cc1 (stereo unspecified) | 2.4 | -2.2
CN(/N=C/c1ccc(Cl)cc1)c1cnn(C)c(=O)c1Cl | . | -0.96
Cc1cc(-c2ccc(S(=O)(=O)Nc3ccc(Cl)cc3)s2)n[nH]1 | 0.77 | .
CCN1CCN(c2ncnc3sc(C(=O)N4CCC(N5CCCCC5)CC4)c(C)c23)CC1 | 1.7 | .
